Compound activity deposited in PubChem by several laboratories.
Rce1 inh: inhibitors of yeast Ras-converting enzyme | Q03530 | yeast membranes, quenched prenylated peptide cleavage fluorescence | calls only | 290,000 tested, 0.27% active;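 active means fall in fluorescence gain of 50% or more versus controls, with final raw signal at or below 3038400; inconclusive means same 50% fall but final raw signal above 3038400; inactive means fall in fluorescence gain under 50%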;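 further: plate controls were neutral control wells for no effect and wells lacking membranes for full effect; tested at 10 µM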
PABP polyA inh: PABP-poly(A) binding inhibition; 290,000 tested, 1% active; inhibition, % at 35 µM; P11940; PABP-poly(A) RNA binding, fluorescence polarization;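 active means 50% or more with normal probe brightness, or confirmed in later tests; inconclusive means above 50% with abnormal brightness, or retests that disagree; inactive means below 50% or failed in later tests; about a fifth of its hits are not listed in these tables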;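 further: calls also rest on retests at 20 µM and on dose response follow-up; controls were probe without protein and protein plus probe with vehicle; some compounds called inactive have numbers as strong as hits; many hits fall short of the cut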
Target sequence (P11940 whole entry, looked up): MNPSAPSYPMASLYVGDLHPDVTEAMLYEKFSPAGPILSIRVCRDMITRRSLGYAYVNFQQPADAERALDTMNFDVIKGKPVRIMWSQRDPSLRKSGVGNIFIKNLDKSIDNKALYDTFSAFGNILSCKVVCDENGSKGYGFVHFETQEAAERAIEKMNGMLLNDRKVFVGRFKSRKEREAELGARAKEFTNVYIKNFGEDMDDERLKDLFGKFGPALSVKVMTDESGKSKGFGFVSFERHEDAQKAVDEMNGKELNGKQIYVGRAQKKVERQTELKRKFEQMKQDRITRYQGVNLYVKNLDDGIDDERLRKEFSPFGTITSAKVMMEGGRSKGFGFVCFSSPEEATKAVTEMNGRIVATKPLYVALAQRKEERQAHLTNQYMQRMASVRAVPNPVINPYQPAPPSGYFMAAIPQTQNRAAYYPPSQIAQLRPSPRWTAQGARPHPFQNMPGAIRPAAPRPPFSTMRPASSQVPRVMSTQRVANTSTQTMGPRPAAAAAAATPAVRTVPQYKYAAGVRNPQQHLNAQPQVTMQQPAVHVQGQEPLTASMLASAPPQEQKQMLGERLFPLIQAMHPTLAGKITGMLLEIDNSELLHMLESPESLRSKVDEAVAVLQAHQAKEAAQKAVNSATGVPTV
eIF4H FP inh: inhibitors of RNA binding by human eIF4H; AID 2012; Q15056; 290,000 tested, 0.94% active; inhibition, % at 35 µM; eIF4H fluorescence polarization binding assay;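 active means 50% or more with normal probe brightness, or confirmed in later tests; inconclusive means above 50% with abnormal brightness, or retests that disagree; inactive means below 50% or failed in later tests; about a fifth of its hits are not listed in these tables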;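 further: calls also rest on retests at 20 µM and on dose response follow-up; 0% = protein and probe with vehicle and 100% = probe without protein; strong numbers were not always called active; many hits fall short of the cut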
CSC inhib: blocks cancer stem cells. cancer stem cell-like cells viability, luminescence. inhibition, % at 7.5 µM. 300,000 tested, 1.1% active. AID 2717;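 active means mean at 75% or more and at least half the replicates too; inconclusive means mean and replicates disagree; tested in HMLE shEcad cells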;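 further: 0% = median of negative and 100% = median of positive control wells; the first replicate is given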
Yeast UUG start: modulators of start codon recognition fidelity in yeast; S. cerevisiae UUG-firefly luciferase reporter, luminescence/redox ratio; activity score, % at 18.7 µM; 350,000 tested, 0.13% active; AID 602363;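 active means replicate mean at a twofold rise or more, about +100% in these data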;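 further: firefly luciferase made from a UUG start codon reports start codon fidelity; reporter light over untreated wells divided by growth signal over untreated wells; some hits fall short of that in this replicate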
Env fusion inh: blocks HIV Env-driven cell-cell fusion; HeLa-JRFL Env/CEM21 cell fusion, luciferase; inhibition, % at 12.3 µM; 360,000 tested, 1.1% active;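 active means mean replicate inhibition score of at least 50 and every replicate individually at or above 50; inconclusive means only one of the two criteria met; inactive means mean below 50 and not all replicates reaching 50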;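 further: 0% = plate neutral controls and 100% = maraviroc near 300 nM; one replicate is shown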
* = called active by the depositor; i = inactive; ? = inconclusive; / = no result given; [ ] = another dose, or the depositor's remark. A portion of the library (hit frequency here may not be typical).

| canonical_smiles | Rce1 inh | PABP polyA inh | eIF4H FP inh | CSC inhib | Yeast UUG start | Env fusion inh |
| --- | --- | --- | --- | --- | --- | --- |
| CN1C(=O)CN=C(c2ccccc2)c2cc([N+](=O)[O-])ccc21 | / | 6 | 2 | / | / | / |
| C[C@H]1O[C@@H](O[C@H]2[C@@H](O)C[C@H](O[C@H]3[C@@H](O)C[C@H](O[C@H]4CC[C@@]5(C)[C@H](CC[C@@H]6[C@@H]5CC[C@]5(C)[C@@H](C7=CC(=O)OC7)CC[C@]65O)C4)O[C@@H]3C)O[C@@H]2C)C[C@H](O)[C@@H]1O | / | -4 | -2 | / | / | / |
| CCC/C=C(\CCC)C(NP(=O)(c1ccccc1)c1ccccc1)c1ccccc1 (stereo not drawn) | i | / | / | 7 | / | / |
| O=C(Cc1ccccc1)N1CCCCN2[C@@H](CO)[C@@H](c3ccc(-c4ccccc4)cc3)[C@@H]2C1 | / | / | / | / | 11 | / |
| O=C(O)[C@H]1[C@H](CO)[C@H]2Cn3c(ccc(-c4ccncc4)c3=O)[C@@H]1N2C(=O)C1CCC1 | / | / | / | / | -33 | / |
| O=C(Cc1ccncc1)N1CCCCN2[C@H](CO)[C@H](c3ccc(C#CC4(O)CCCC4)cc3)[C@@H]2C1 | / | / | / | / | 24 | / |
| O=C(Cc1ccccn1)N1CCCCN2[C@@H](CO)[C@H](c3ccc(-c4ccccc4)cc3)[C@@H]2C1 | / | / | / | / | -8 | / |
| COc1ccc(-c2ccc([C@@H]3[C@@H](CO)N4CCCCN(C(=O)Cc5ccccc5)C[C@@H]34)cc2)cc1 | / | / | / | / | 7 | / |
| O=C(Cc1ccncc1)N1CCCCN2[C@@H](CO)[C@@H](c3ccc(-c4ccncc4)cc3)[C@@H]2C1 | / | / | / | / | -2 | / |
| COc1ccc(C#Cc2ccc([C@H]3[C@@H](CO)N4CCCCN(C(=O)Cc5cccnc5)C[C@H]34)cc2)cc1 | / | / | / | / | 1 | / |
| COC(=O)[C@@H]1[C@@H](CO)[C@@H]2Cn3c(ccc(C4=CCCC4)c3=O)[C@H]1N2CC1CCCCC1 | / | / | / | / | 16 | / |
| O=C(Cc1cccnc1)N1CCCCN2[C@H](CO)[C@@H](c3ccc(C#CC4CC4)cc3)[C@H]2C1 | / | / | / | / | 2 | / |

Rewritten field by field: entries from further up.
> CCC/C=C(\CCC)C(NP(=O)(c1ccccc1)c1ccccc1)c1ccccc1 (stereo not drawn)
  Rce1 inh: i | PABP polyA inh: / | eIF4H FP inh: / | CSC inhib: 7 | Yeast UUG start: / | Env fusion inh: /
> O=C(Cc1ccccn1)N1CCCCN2[C@@H](CO)[C@H](c3ccc(-c4ccccc4)cc3)[C@@H]2C1
  Rce1 inh: / | PABP polyA inh: / | eIF4H FP inh: / | CSC inhib: / | Yeast UUG start: -8 | Env fusion inh: /

(continued)
| canonical_smiles | Rce1 inh | PABP polyA inh | eIF4H FP inh | CSC inhib | Yeast UUG start | Env fusion inh |
| --- | --- | --- | --- | --- | --- | --- |
| CN(C)CC#Cc1ccc([C@H]2[C@@H](CO)N3CCCCN(C(=O)Cc4ccccn4)C[C@H]23)cc1 | / | / | / | / | -5 | / |
| CCCC#Cc1ccc([C@H]2[C@@H](CO)N3CCCCN(C(=O)Cc4ccccn4)C[C@@H]23)cc1 | / | / | / | / | 0 | / |
| O=C(Cc1ccccc1)N1CCCCN2[C@@H](CO)[C@H](c3ccc(C#Cc4ccccc4)cc3)[C@@H]2C1 | / | / | / | / | -4 | / |
| CC(C)CC#Cc1ccc([C@@H]2[C@H](CO)N3CCCCN(C(=O)Cc4ccccn4)C[C@@H]23)cc1 | / | / | / | / | 38 | / |
| COCC#Cc1ccc([C@H]2[C@H](CO)N3CCCCN(C(=O)Cc4ccccn4)C[C@@H]23)cc1 | / | / | / | / | 4 | / |
| COc1ccc(C#Cc2ccc([C@H]3[C@H](CO)N4CCCCN(C(=O)Cc5ccncc5)C[C@@H]34)cc2)cc1 | / | / | / | / | -3 | / |
| CC(C)CC#Cc1ccc([C@@H]2[C@@H](CO)N3CCCCN(C(=O)Cc4ccccn4)C[C@H]23)cc1 | / | / | / | / | 61 | / |
| Cc1ccccc1-c1ccc([C@H]2[C@H]3CN(C(=O)Cc4ccccn4)CCCCN3[C@H]2CO)cc1 | / | / | / | / | 3 | / |
| COC(=O)[C@H]1[C@H](CO)[C@H]2Cn3c(ccc(C4=CCCC4)c3=O)[C@@H]1N2CC1CCCCC1 | / | / | / | / | 9 | / |
| COCC#Cc1ccc([C@@H]2[C@@H](CO)N3CCCCN(C(=O)Cc4ccccn4)C[C@@H]23)cc1 | / | / | / | / | 3 | / |
| C/C=C/c1ccc([C@@H]2[C@@H](CO)N3CCCCN(C(=O)Cc4ccncc4)C[C@@H]23)cc1 | / | / | / | / | -11 | / |
| Cc1ccccc1-c1ccc([C@@H]2[C@H]3CN(C(=O)Cc4ccccn4)CCCCN3[C@H]2CO)cc1 | / | / | / | / | -5 | / |
| N#Cc1cccc(-c2ccc([C@@H]3[C@H](CO)N4CCCCN(C(=O)Cc5ccncc5)C[C@@H]34)cc2)c1 | / | / | / | / | -13 | / |
| C/C=C/c1ccc([C@@H]2[C@H]3CN(C(=O)Cc4cccnc4)CCCCN3[C@H]2CO)cc1 | / | / | / | / | -15 | / |
| O=C(Cc1cccnc1)N1CCCCN2[C@@H](CO)[C@@H](c3ccc(C#CC4CC4)cc3)[C@@H]2C1 | / | / | / | / | 10 | / |
| O=C(Cc1ccccc1)N1CCCCN2[C@H](CO)[C@H](c3ccc(C#Cc4ccccc4)cc3)[C@H]2C1 | / | / | / | / | -1 | / |
| COC(=O)[C@H]1[C@H](CO)[C@H]2Cn3c(ccc(C4=CCCC4)c3=O)[C@@H]1N2C(=O)CC1CC1 | / | / | / | / | 8 | / |
| CCCC#Cc1ccc([C@H]2[C@H]3CN(C(=O)Cc4ccccn4)CCCCN3[C@H]2CO)cc1 | / | / | / | / | 3 | / |
| O=C(Cc1ccccn1)N1CCCCN2[C@@H](CO)[C@@H](c3ccc(-c4ccc(F)cc4)cc3)[C@@H]2C1 | / | / | / | / | 4 | / |
| COC(=O)[C@@H]1[C@@H](CO)[C@@H]2Cn3c(ccc(/C=C/c4ccccc4)c3=O)[C@H]1N2C(=O)C1CCC1 | / | / | / | / | 6 | / |
| O=C(Cc1cccnc1)N1CCCCN2[C@H](CO)[C@@H](c3ccc(/C=C/c4ccccc4)cc3)[C@@H]2C1 | / | / | / | / | -17 | / |
| O=C(Cc1cccnc1)N1CCCCN2[C@H](CO)[C@@H](c3ccc(C#CC4(O)CCCC4)cc3)[C@H]2C1 | / | / | / | / | 1 | / |
| COC(=O)[C@H]1[C@H](CO)[C@H]2Cn3c(cccc3=O)[C@@H]1N2C(=O)C1CCCC1 | / | / | / | / | 16 | / |
| O=C(Cc1cccnc1)N1CCCCN2[C@H](CO)[C@H](c3ccc(/C=C/c4ccccc4)cc3)[C@H]2C1 | / | / | / | / | -11 | / |
| CCCC#Cc1ccc([C@H]2[C@H](CO)N3CCCCN(C(=O)Cc4ccccn4)C[C@@H]23)cc1 | / | / | / | / | 10 | / |
| O=C(Cc1cccnc1)N1CCCCN2[C@H](CO)[C@@H](c3ccc(/C=C/c4ccccc4)cc3)[C@H]2C1 | / | / | / | / | -14 | / |
| COCC#Cc1ccc([C@@H]2[C@H]3CN(C(=O)Cc4ccccn4)CCCCN3[C@H]2CO)cc1 | / | / | / | / | -5 | / |
| COC(=O)[C@H]1[C@H](CO)[C@H]2Cn3c(ccc(C4=CCCCC4)c3=O)[C@@H]1N2CC1CCCC1 | / | / | / | / | 13 | / |
| N#Cc1cccc(-c2ccc([C@H]3[C@@H](CO)N4CCCCN(C(=O)Cc5ccncc5)C[C@H]34)cc2)c1 | / | / | / | / | -15 | / |
| O=C(Cc1ccncc1)N1CCCCN2[C@H](C1)[C@H](c1ccc(C#CC3(O)CCCC3)cc1)[C@@H]2CO | / | / | / | / | 25 | / |
| O=C(Cc1cccnc1)N1CCCCN2[C@H](CO)[C@@H](c3ccc(C#CC4(O)CCCC4)cc3)[C@@H]2C1 | / | / | / | / | 17 | / |
| C/C=C/c1ccc([C@H]2[C@H](CO)N3CCCCN(C(=O)Cc4cccnc4)C[C@@H]23)cc1 | / | / | / | / | -13 | / |
| COc1ccc(-c2ccc([C@@H]3[C@H]4CN(C(=O)Cc5ccccc5)CCCCN4[C@H]3CO)cc2)cc1 | / | / | / | / | -6 | / |
| O=C(Cc1cccnc1)N1CCCCN2[C@H](C1)[C@H](c1ccc(/C=C/c3ccccc3)cc1)[C@@H]2CO | / | / | / | / | -8 | / |
| N#Cc1cccc(-c2ccc([C@H]3[C@@H](CO)N4CCCCN(C(=O)Cc5ccncc5)C[C@@H]34)cc2)c1 | / | / | / | / | -14 | / |
| O=C(Cc1ccccc1)N1CCCCN2[C@H](C1)[C@@H](c1ccc(-c3ccccc3)cc1)[C@@H]2CO | / | / | / | / | 12 | / |
| O=C(Cc1ccccn1)N1CCCCN2[C@H](CO)[C@@H](c3ccc(C#Cc4ccccc4)cc3)[C@H]2C1 | / | / | / | / | 6 | / |
| CN(C)CC#Cc1ccc([C@@H]2[C@@H](CO)N3CCCCN(C(=O)Cc4ccccn4)C[C@H]23)cc1 | / | / | / | / | -12 | / |
| Cc1ccccc1-c1ccc([C@@H]2[C@@H](CO)N3CCCCN(C(=O)Cc4ccccn4)C[C@@H]23)cc1 | / | / | / | / | 3 | / |
| CC1=C2C[C@H]3[C@@H](CC=C4C[C@@H](O)CC[C@@]43C)[C@@H]2CC[C@]12O[C@@H]1C[C@H](C)CN[C@@H]1C2C (stereo partly drawn) | / | / | / | / | / | -8[16.7 µM] |
| C[C@H](CO)N1C[C@H](C)[C@H](CN(C)C(=O)Oc2ccc3ccccc3c2)OCc2cnnn2CCCC1=O | / | / | / | / | / | -16[16.7 µM] |
| O=C(O)C[C@@H]1CC[C@H]2NC[C@H](O)COC[C@@H]2O1 | / | / | / | / | / | -11[16.7 µM] |
| O=C(NCCN1CCC2(CC1)C(=O)NCN2c1ccccc1)c1ccc(F)cc1 | / | / | / | / | / | -12 |
| Cc1cccc(S(=O)(=O)N2[C@@H]3c4ccc(-c5ccc(F)cc5)c(=O)n4C[C@H]2[C@H](CO)[C@H]3C(=O)O)c1 | / | / | / | / | / | -2[16.7 µM] |
| O=C(O)[C@@H]1[C@@H](CO)[C@@H]2Cn3c(ccc(-c4ccncc4)c3=O)[C@H]1N2C(=O)C1CC1 | / | / | / | / | / | ? |
| C[C@@H]1CN([C@H](C)CO)C(=O)CCCn2cc(nn2)CO[C@@H]1CN(C)C(=O)Oc1ccc2ccccc2c1 | / | / | / | / | / | -2[16.7 µM] |
| COc1cc(OC)cc(C(=O)NCCN2CCC3(CC2)C(=O)NCN3c2ccccc2)c1 | / | / | / | / | / | 12 |
| O=C(NCCN1CCC2(CC1)C(=O)NCN2c1ccccc1)C(c1ccccc1)c1ccccc1 | / | / | / | / | / | 14 |
| O=C(NC1CCCCC1)N1Cc2cc(Br)ccc2-n2nncc2C1 | / | / | / | / | / | 31 |
| C=CC1CN2CCC1C[C@@H]2CO (stereo partly drawn) | / | / | / | / | / | 1[16.7 µM] |
| C[C@H](Cc1ccc(OCC(=O)O)cc1)NC[C@H](O)c1cccc(Cl)c1 | / | / | / | / | / | 14 |
| CN1CC[C@@H]2CN[C@H](c3ccccc3)C[C@@H]21 | / | / | / | / | / | 14 |
| Cc1cc(N2CCNC[C@@H]2C)ccc1N1CC[C@@H](O)C1 | / | / | / | / | / | -7 |
| Brc1ccc2c(c1)-n1nncc1CNC2 | / | / | / | / | / | 35 |
| COC(=O)[C@H]1[C@H](CO)[C@H]2Cn3c(cccc3=O)[C@@H]1N2Cc1nccs1 | / | / | / | / | / | -1[16.7 µM] |
| COc1ccc(-c2ccc3n(c2=O)C[C@H]2[C@H](CO)[C@@H](C(=O)O)[C@@H]3N2C(=O)c2ccccc2F)cc1 | / | / | / | / | / | 6[16.7 µM] |
| Cc1cc(N2CCNC[C@H]2C)ccc1N1CCN[C@H](C)C1 | / | / | / | / | / | -9 |
| O=C(NCCN1CCC2(CC1)C(=O)NCN2c1ccccc1)c1ccc(Cl)c(Cl)c1 | / | / | / | / | / | 15 |
| C[C@H]1CNCCN1c1ccc(N2CC[C@H](O)C2)c(C#N)c1 | / | / | / | / | / | -1 |
| CCCN1[C@@H]2c3cccc(=O)n3C[C@H]1[C@H](CO)[C@H]2C(=O)N(C)C | / | / | / | / | / | -9[16.7 µM] |
